TRPML1 agonist: activates the human TRPML1 channel; Q9GZU1; TRPML1-expressing cells, Ca2+ dye fluorescence, FDSS; host cell line not named in the record; reference of the full effect not given here; activation, % (concentration not given with the values); 0.12% of 410,000 active; AID 624414; in the data active = activation above about 50%; inconclusive = about 30% to 50%; inactive = below about 30%; also: 0% is about no effect; the text of the record puts the active cut at 80%
Target sequence (Q9GZU1 whole entry, looked up): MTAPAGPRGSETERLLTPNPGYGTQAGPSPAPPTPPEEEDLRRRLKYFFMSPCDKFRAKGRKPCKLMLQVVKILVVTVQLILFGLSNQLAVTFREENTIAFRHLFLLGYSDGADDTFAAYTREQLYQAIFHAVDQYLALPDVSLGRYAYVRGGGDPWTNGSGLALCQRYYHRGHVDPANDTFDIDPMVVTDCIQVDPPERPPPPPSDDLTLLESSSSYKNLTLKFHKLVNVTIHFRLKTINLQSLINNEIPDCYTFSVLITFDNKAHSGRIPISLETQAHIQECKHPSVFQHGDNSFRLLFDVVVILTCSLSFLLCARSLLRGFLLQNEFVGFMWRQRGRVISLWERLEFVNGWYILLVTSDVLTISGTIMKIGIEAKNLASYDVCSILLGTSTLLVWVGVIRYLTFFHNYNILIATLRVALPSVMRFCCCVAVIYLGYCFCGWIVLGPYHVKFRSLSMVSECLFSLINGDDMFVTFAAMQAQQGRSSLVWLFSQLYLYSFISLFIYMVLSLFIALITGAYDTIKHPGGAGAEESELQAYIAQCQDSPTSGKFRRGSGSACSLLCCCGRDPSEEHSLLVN
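TRPML1-DL cells, Tet-induced overnight (~16 h, 37 degrees C), loaded 45-90 min at room temperature with Ca8 no-wash calcium dye plus quencher. FDSS fluorescence: 10 s baseline, compound pin-transfer, 110 s agonist read, then EC80 54-4 (4uM final) and 110 s antagonist read.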
ClpP mod: qHTS Assay for Activators of ClpP. AID 651965, 2013. 1.9% of 340,000 active. purified B. subtilis ClpP, FRET peptide cleavage, 20 min. ATP-dependent Clp protease proteolytic subunit (Bacillus subtilis (strain 168)), P80244. Potency, µM (titrated, usually from 57.5 µM), inactives show at the highest dose activity change, negative = active; active = well fitted falling curve with a large enough effect; inconclusive = small, poorly fitted or top-dose-only effect; inactive = no such curve, though single readings can be large or run the other way; also: potency is read from the fitted curve at half-maximal effect; the source files actives as falling curves though it sought activators and does not explain the sign; nearly all actives have a fitted effect of over 65% in size; many hits overshoot -100%
Target sequence (P80244 whole entry, looked up): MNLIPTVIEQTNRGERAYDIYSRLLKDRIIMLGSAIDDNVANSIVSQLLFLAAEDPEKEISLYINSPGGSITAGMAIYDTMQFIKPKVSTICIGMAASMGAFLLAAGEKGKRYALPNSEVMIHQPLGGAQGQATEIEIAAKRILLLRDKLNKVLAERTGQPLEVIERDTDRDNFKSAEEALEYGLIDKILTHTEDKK
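Purified B. subtilis ClpP, 10 microg/mL final in Tris/HCl pH8 with KCl, BSA, glycerol and Tween-20, cleaved an Abz/nitrotyrosine-quenched decapeptide. Fluorescence (ex 320, em 430) was read at 0 and 20 min at room temperature. Delta was normalized to 5.8 microM ADEP and DMSO/no-enzyme controls.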
TRPML1 inh: blocks the human TRPML1 channel. 0.02% of 390,000 active. activity change, negative = inhibition, % (test concentration not listed). Q9GZU1. TRPML1-inducible cells, Ca2+ dye fluorescence, FDSS; active compounds read low; inhibition of EC80 agonist-evoked calcium signal. AID 624415; in the data active means activity change below about -50%; inconclusive means about -30% to -50%; inactive means above about -30%;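 also: stimulus is agonist 54-4 at its EC80 concentration; % is scaled to controls: 0 for no effect and ±100 for the full control effect; compound concentration not given in the record; the text of the record puts the active cut at -80%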
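Calcium fluorescence in TRPML1-DL cells induced overnight with Tet: a 110 s read after compound pin addition, then a 110 s antagonist read after challenge with 54-4 at 4 uM final (EC80).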
Menin-MLL FL inh: inhibitors of human menin-MLL interaction, wild-type MLL peptide; Fluorescence polarization, fluorescein-MLL peptide displacement from menin; FP activity change, % at 61.4 µM; 290,000 tested, under 10 active; AID 1766; inconclusive = falling polarisation curve, or a change in total fluorescence; inactive = total fluorescence flat and polarisation flat or rising; no compound was filed as active; the % refers to the polarisation; negative = inhibition;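 also: % of control where 0% means no effect; inhibitors lower the polarisation; unlabelled MLL peptide was the positive control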
gsp ag: gsp mutant agonism; gsp mutant cells, cAMP HTRF, 30 min; control for the full effect not named in the record; Potency, µM (titrated, usually from 76.9 µM), for the others: at the highest dose activation (cAMP increase), usual class: activators; 0.13% of 340,000 active; AID 624287; active = well fitted activation curve with a large enough effect; inconclusive = small, poorly fitted or top-dose-only effect, or another doubt; inactive = no such curve, though single readings can be large or run the other way; cell line not stated here;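 also: phosphodiesterase inhibitor Ro 20-1724 added with compounds to block cAMP breakdown; potency is read from the fitted curve at half-maximal effect; nearly all actives have a fitted effect of over 60% in size; about a fifth of the inactives were tested at one dose only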
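Cells stably selected in G418 were plated at 2000/well, grown 16-24 hr, then given compounds in DMSO with the PDE inhibitor […] (300 uM solution added) for 30 min at 37C; cAMP was read by HTRF.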
gsp antagonist: antagonists of gsp mutant (McCune-Albright syndrome) | gsp-mutant cells, cAMP HTRF, 30 min; control for the full effect not named in the record | Potency, µM (highest dose often 76.9 µM), for the others: at the top dose activity change, negative = inhibition, hits mostly inhibitors | 0.4% of 340,000 active; active = falling curve of any shape with a large fitted effect; inconclusive = falling curve, mostly with a smaller effect; inactive = flat or rising curve; cell line not stated here;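 also: intracellular cAMP measured with PDE inhibitor Ro 20-1724 present during compound exposure; potency is read from the fitted curve at half-maximal effect; % is scaled to controls: 0 for no effect and ±100 for the full control effect; nearly all actives have a fitted effect of over 65% in size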
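Cells, 2000/well, grown 16–24 h in DMEM 10% FBS with 0.5 mg/ml G418, then compounds plus […] (300 uM addition stock), 30 min at 37C. cAMP read by HTRF (cAMP-d2 and anti-cAMP antibody-K in lysis buffer) after 30 min RT.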
An asterisk follows results filed as active; [ ] = dose if it differs, or a comment.

How did c1cc(CCCc2ccncc2)ccn1 do in these assays?
TRPML1 agonist: 0.1; ClpP mod: 2.3%; TRPML1 inh: 4; gsp ag: -4%; gsp antagonist: 8%

How did Cc1cccc(/C=N\NC(=O)c2csnn2)c1 do in these assays?
TRPML1 agonist: 0.8; ClpP mod: -14%; TRPML1 inh: -15; Menin-MLL FL inh: 2.5; gsp ag: -17%; gsp antagonist: -3%

How did CC(C)N1CCN(Cc2cccc(-n3cccn3)c2)CC1CCO (configuration not stated) do in these assays?
TRPML1 agonist: -0.8; ClpP mod: -0.7%; TRPML1 inh: 47; Menin-MLL FL inh: -1.7; gsp ag: 8%; gsp antagonist: 8%

What do the screens show for `CCCCCOC(=O)c1cc(=O)[nH]c2ccccc12`?
TRPML1 agonist: 2.9; ClpP mod: -4.9%; TRPML1 inh: 6; Menin-MLL FL inh: -3.0; gsp ag: 3%; gsp antagonist: 9%

Results for CCCS(=O)(=O)N1CCN(Cc2ccco2)CC1 ?
TRPML1 agonist: 1.0; ClpP mod: -0.3%; TRPML1 inh: 26; Menin-MLL FL inh: 4.0; gsp ag: -38%[inhibitor]; gsp antagonist: -6%

How did CCOC(=O)N1CCN(C(=O)c2c(-c3c(Cl)cccc3Cl)noc2C)CC1 do in these assays?
TRPML1 agonist: -0.5; TRPML1 inh: 18; Menin-MLL FL inh: -1.4; gsp ag: -1%; gsp antagonist: -2%

What do the screens show for `CCCCn1c(=S)[nH]c2cc(S(=O)(=O)N3CCCCC3)ccc21`?
TRPML1 agonist: 0.3; ClpP mod: -3.2%; TRPML1 inh: 1; Menin-MLL FL inh: -1.0; gsp ag: 32%; gsp antagonist: -3%

Results for O=C(CSc1ncccn1)NCc1ccc2c(c1)OCO2 ?
TRPML1 agonist: -0.3; TRPML1 inh: -4; Menin-MLL FL inh: -1.0; gsp ag: -12%; gsp antagonist: 9%

How did CCn1cc(C(=O)N(C)c2ccc(C(C)C)cc2)c2cc(OC)c(OC)cc2c1=O do in these assays?
TRPML1 agonist: 0.4; ClpP mod: -3.6%; TRPML1 inh: -18

How did Cc1nnc(SCc2ccccc2C#N)n1-c1ccccc1 do in these assays?
TRPML1 agonist: -0.5; ClpP mod: -1.3%; TRPML1 inh: -6; Menin-MLL FL inh: 2.8; gsp ag: -16%; gsp antagonist: -6%

What do the screens show for `Cc1c(NS(=O)(=O)c2ccc(N=NN(C)C)cc2)c(=O)n(-c2ccccc2)n1C`?
TRPML1 agonist: 0.2; ClpP mod: 0.4%; TRPML1 inh: 8; Menin-MLL FL inh: -0.1; gsp ag: -16%; gsp antagonist: 4%

What do the screens show for `COc1ccc(-c2noc(CCC(=O)N3CCN(c4ccc(C(F)(F)F)cc4)CC3)n2)cc1`?
TRPML1 agonist: 0.2; ClpP mod: -3.4%; TRPML1 inh: -6; gsp antagonist: 7%

How did Cc1cccc(CC(Cc2nc3ccccc3[nH]2)c2nc3ccccc3[nH]2)c1 (configuration not stated) do in these assays?
TRPML1 agonist: 0.7; ClpP mod: -5.2%; TRPML1 inh: -7; Menin-MLL FL inh: 1.5; gsp ag: 0%; gsp antagonist: inconclusive

What do the screens show for `CC(=O)Nc1cccc2c1OCCO2`?
TRPML1 agonist: -0.7; ClpP mod: -2.4%; TRPML1 inh: 14; Menin-MLL FL inh: 2.6; gsp ag: -63%[inhibitor]; gsp antagonist: -5%

How did COc1ccc(C(=O)NCCc2nnc(SCC(=O)Nc3ccc(Br)cc3)n2C)cc1 do in these assays?
TRPML1 agonist: -0.3; ClpP mod: -0.6%; TRPML1 inh: 29; Menin-MLL FL inh: -3.5; gsp ag: -20%; gsp antagonist: -12%

Results for C[C@H](C(=O)NCc1ccccc1)C(=O)c1ccccc1 ?
TRPML1 agonist: 0.1; ClpP mod: -0.9%; TRPML1 inh: 2; Menin-MLL FL inh: 1.9; gsp ag: 26%; gsp antagonist: 4%

What do the screens show for `Cc1ccc(Cn2cc(/C=N/Nc3ccc([N+](=O)[O-])cn3)c3ccccc32)cc1`?
TRPML1 agonist: 4.7; TRPML1 inh: 34; Menin-MLL FL inh: 13; gsp ag: -5%; gsp antagonist: -3%

What do the screens show for `COc1ccc(C(=O)NCC(=O)NCC(=O)OCC(=O)C(C)(C)C)cc1`?
TRPML1 agonist: 0.2; ClpP mod: 1.0%; TRPML1 inh: 6; Menin-MLL FL inh: 7.9; gsp ag: -45%[inhibitor]; gsp antagonist: 4%

Results for COc1ccc(S(=O)(=O)N2CC(O)C[C@H]2C(=O)OCC(=O)N2CCCCCC2)cc1 (some centres not stated) ?
TRPML1 agonist: 1.9; TRPML1 inh: 5; Menin-MLL FL inh: 0.7; gsp ag: -29%; gsp antagonist: 7%

Results for Cc1cccc(C(=O)NCc2nnc(SCC(=O)Nc3nncs3)n2C)c1 ?
TRPML1 agonist: 2.1; TRPML1 inh: 17; Menin-MLL FL inh: -0.1; gsp ag: 0%; gsp antagonist: 7%

Results for O=C(COC(=O)c1n[nH]c(=O)c2ccccc12)c1ccccc1 ?
TRPML1 agonist: 1.2; ClpP mod: -11%; TRPML1 inh: -9; Menin-MLL FL inh: 5.6; gsp ag: -36%[inhibitor]; gsp antagonist: 3%

How did CCCCCC(=O)Nc1ccc2oc(-c3cncc(Br)c3)nc2c1 do in these assays?
TRPML1 agonist: 0.5; ClpP mod: -27%; TRPML1 inh: 3; Menin-MLL FL inh: 0.9; gsp ag: -2%; gsp antagonist: 1%

What do the screens show for `CCOC(=O)C1=C(c2ccccc2)NC(SCC(=O)Nc2cccc(C)c2)=C(C#N)C1c1ccco1` (configuration not stated)?
TRPML1 agonist: -0.3; ClpP mod: inconclusive; TRPML1 inh: 36; Menin-MLL FL inh: 1.0; gsp ag: 4%; gsp antagonist: 1%

What do the screens show for `CCCCNC(=O)NC12CC3CC(CC(C3)C1)C2`?
TRPML1 agonist: -0.6; TRPML1 inh: 20; Menin-MLL FL inh: -0.8; gsp ag: -13%[15.4 µM]; gsp antagonist: 2%

Results for C[C@H](CO)N1C[C@H](C)[C@@H](CN(C)S(=O)(=O)c2ccc(Cl)cc2)OCc2cnnn2CCCC1=O ?
TRPML1 agonist: -0.6; ClpP mod: 0.8%; TRPML1 inh: 6; gsp ag: -11%

Results for c1ccc(-c2cnnc(-c3ccccn3)n2)cc1 ?
TRPML1 agonist: -0.2; ClpP mod: -0.4%; TRPML1 inh: -7; gsp ag: -24%; gsp antagonist: 7%

How did CCOC(=O)c1cccc(NC(=O)CCNS(=O)(=O)c2ccc3c(c2)CCN3C(=O)CC)c1 do in these assays?
TRPML1 agonist: -0.9; ClpP mod: 0.4%; TRPML1 inh: 6; Menin-MLL FL inh: -4.9; gsp ag: -43%; gsp antagonist: -18%

What do the screens show for `O=c1c2ccccc2c(C=NCCCN2CCOCC2)c(O)n1Cc1ccc2c(c1)OCO2`?
TRPML1 agonist: 0.8; TRPML1 inh: 23; Menin-MLL FL inh: 0.7; gsp ag: -2%[15.4 µM]; gsp antagonist: -17%

Results for CC(=O)Nc1ccc(S(=O)(=O)N2CCN(CC3CC4C=CC3C4)CC2)cc1 (configuration not stated) ?
TRPML1 agonist: 0.1; ClpP mod: -3.0%; TRPML1 inh: 5; Menin-MLL FL inh: 1.3; gsp ag: -37%; gsp antagonist: -5%

Results for Cc1ccc(S(=O)(=O)NC(=O)NC(C)c2ccc(F)cc2)cc1 (configuration not stated) ?
TRPML1 agonist: 0.2; TRPML1 inh: -15; Menin-MLL FL inh: 2.1; gsp ag: inconclusive; gsp antagonist: -4%

What do the screens show for `CN(Cc1nc2ccc(F)cc2[nH]1)Cc1c(C(=O)N(C)C)nc2ccc(Cl)cn12`?
TRPML1 agonist: 0.0; TRPML1 inh: 3; Menin-MLL FL inh: -8.0; gsp ag: inconclusive; gsp antagonist: 1%

What do the screens show for `COC(=O)c1ccc(Nc2ncnc3c2cnn3-c2ccccc2)cc1`?
TRPML1 agonist: 0.4; ClpP mod: -19%; TRPML1 inh: 27

Results for Cc1nc2cccnc2n1-c1cccc(C(=O)NCCN(C)C)c1 ?
TRPML1 agonist: 0.5; ClpP mod: 0.3%; TRPML1 inh: -7

What do the screens show for `CCOC(=O)/C(C#N)=C/c1ccc(OCC(=O)Nc2ccccc2)c(OC)c1`?
TRPML1 agonist: -1.0; ClpP mod: -20%; TRPML1 inh: 1; Menin-MLL FL inh: 1.1; gsp ag: 21%; gsp antagonist: 13%

What do the screens show for `Cc1c(Br)c([N+](=O)[O-])nn1CC(=O)NCc1cccnc1`?
TRPML1 agonist: 0.2; ClpP mod: 0.5%; TRPML1 inh: 22; Menin-MLL FL inh: -0.3; gsp ag: -10%; gsp antagonist: 5%

Results for Cc1ccc(NC(=O)CN(c2ccccc2)S(=O)(=O)N(C)C)cc1 ?
TRPML1 agonist: -0.3; ClpP mod: -9.5%; TRPML1 inh: -12; Menin-MLL FL inh: 3.1; gsp ag: -44%[inhibitor]; gsp antagonist: 13%

Results for CCCn1c(SCC(=O)N2CCN(CC)CC2)nc2c1c(=O)n(C)c(=O)n2C ?
TRPML1 agonist: -0.4; TRPML1 inh: 5; gsp ag: inconclusive; gsp antagonist: 7%

What do the screens show for `Cc1noc(C)c1NC(=O)N(C)C[C@H]1Oc2ccc(NC(=O)C3CCCCC3)cc2C(=O)N([C@H](C)CO)C[C@@H]1C`?
TRPML1 agonist: 0.3; ClpP mod: 0.5%; TRPML1 inh: 55; gsp antagonist: 7%

What do the screens show for `CC(=O)Nc1nnc(SCC(=O)Nc2ccc3c(c2)OCCO3)s1`?
TRPML1 agonist: 0.5; ClpP mod: -5.4%; TRPML1 inh: 5; gsp ag: -27%; gsp antagonist: 0%

What do the screens show for `Cc1ccc(NC(=O)CSc2nc(N)c(-c3ccccc3)c(=O)[nH]2)cc1Cl`?
TRPML1 agonist: -0.1; TRPML1 inh: 11; Menin-MLL FL inh: -0.4; gsp ag: -2%[15.4 µM]; gsp antagonist: 9%

Results for Cc1cc(SCCC(=O)O)nc2ccccc12 ?
TRPML1 agonist: -0.2; ClpP mod: -4.2%; TRPML1 inh: 6; Menin-MLL FL inh: 5.3; gsp ag: inconclusive; gsp antagonist: 8%

How did CC1=NNC(=O)C1CCC(=O)N/N=C(\C)c1ccccc1 (configuration not stated) do in these assays?
TRPML1 agonist: 2.5; TRPML1 inh: -1; Menin-MLL FL inh: 3.7; gsp ag: 7%; gsp antagonist: 11%

Results for Cc1ccc(NC(=O)COC(=O)Cc2ccccc2)cc1S(=O)(=O)N1CCOCC1 ?
TRPML1 agonist: 0.9; ClpP mod: -2.2%; TRPML1 inh: 26; gsp ag: 6%; gsp antagonist: -5%
